Ab BasE inh: BasE siderophore biosynthesis inhibition. inhibition, % (concentration not given with the values). hit rate 0.1% among 84,000. AID 485350. purified BasE, fluorescence polarization binding displacement;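 active means both replicates above 25% with normal brightness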;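 further: 0% = negative plate control signal and 100% = positive plate control signal; stock transfer was 100 nL into about 30 µL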
LANA-nucl inh: inhibitors of KSHV LANA binding to nucleosomes; FITC-LANA1-23 / chicken nucleosome fluorescence polarization; active compounds read low; z-score (test concentration not listed); hit rate 0.3% among 51,000; AID 720717;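 active means both repeat wells score below -2 in polarization z-score versus plate sample wells, excluding overly bright wells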;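 further: 100 nL library stock added to about 30 µL; numbers are from one replicate; some results filed as inactive read as strong as hits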
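System – purified chicken nucleosomes with FITC-labelled LANA N-terminal peptide (1-23) · Amount – 240 nM purified chicken nucleosomes (480 nM peptide binding sites), final · Also added – 50 nM FITC-LANA1-23 probe · Medium – TEN-BT buffer, pH 7.5 · Incubation – compound with peptide–nucleosome mix 10–45 min at room temperature · Detection – fluorescence polarization, ex 480 nm, em 535 nm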
* hit, by the source's call; . = no result given; & = joins results of further samples. A portion of the library (hit frequency here may not be typical).

(1) CCN1CCN(Cc2cc(C(C)(C)C)c(O)c(C(C)(C)C)c2)CC1
(2) O=C(COc1ccc(S(=O)(=O)N2CCOCC2)cc1)N1CCN(Cc2ccc3c(c2)OCO3)CC1
(3) CCCCCCCCCCCCCCCCOC[C@H](COP(=O)([O-])OCC[N+](C)(C)C)OC(C)=O
(4) O=C1c2ccccc2C(=O)c2ccccc21
(5) O=c1ccc2cc(O[C@@H]3OC(CO)[C@@H](O)[C@@H](O)C3O)c(O)cc2o1 (stereo partly drawn)
(6) CN(C)C(=O)Oc1ccnc(SCc2ccc(Cl)cc2Cl)n1
(7) CCC1=NP(N2CCN(C)CC2)(N2CCN(C)CC2)=NC(N2CCN(C)CC2)=C1C
(8) COP(=S)(OC)Oc1ccc(Sc2ccc(OP(=S)(OC)OC)cc2)cc1

assay / entry,1,2,3,4,5,6,7,8
LANA-nucl inh,-0.278,0.277,-0.176,-0.32,-1.1,0.292,.,-0.062
Ab BasE inh,0.8,-0.2,-1.0,-0.7,2.3,.,0.6,.

Structures above that contain an aryl thioether with sulfur outside any ring (2):
(6) CN(C)C(=O)Oc1ccnc(SCc2ccc(Cl)cc2Cl)n1
(8) COP(=S)(OC)Oc1ccc(Sc2ccc(OP(=S)(OC)OC)cc2)cc1

assay / entry,6,8
LANA-nucl inh,0.292,-0.062
Ab BasE inh,.,.

Other records follow.
(9) Cc1ccc(C2N3CCCN23)cc1 (stereo not drawn)
(10) CN1CC[C@@]23CCCC[C@@H]2[C@@H]1Cc1ccc(O)cc13
(11) NCCc1ccc2c(c1)OCCO2
(12) CCc1ccc(NC2=NCCCS2)cc1
(13) CCN1CCN(CC2=CCC3CC2C3(C)C)CC1 (stereo not drawn)
(14) Cn1c(O)c(C=NC2CCCCCC2)c(=O)[nH]c1=S
(15) Cc1nc2ccccc2c(=O)n1-c1cccc(O)c1
(16) CN1C2CCC1CC(N=Cc1c(F)cccc1Cl)C2 (stereo not drawn)

assay / entry,9,10,11,12,13,14,15,16
LANA-nucl inh,0.054,0.429,.,.,0.97,0.577,-0.605,0.937
Ab BasE inh,-0.1,.,2.6,-0.5,-1.0,3.6,1.1,.

(17) COc1ccccc1CNc1cnn(C23CC4CC(CC(C4)C2C(=O)O)C3)c(=O)c1Cl (stereo not drawn)
(18) CCc1ccc(C=C2C(=O)N(C)C(=S)N(C)C2=O)cc1
(19) NC(N)=NC(N)=Nc1ccc(Cl)cc1
(20) COc1ccc(Br)cc1CN1CCN(C(=O)Cc2ccccc2)CC1
(21) COC(=O)[C@@H](N)CCCN=C(N)N[N+](=O)[O-]
(22) C=CCc1ccc2c(c1)OCO2
(23) C=C1C/C(=C/C)C(=O)O[C@@H]2CCN3CC=C(COC(=O)[C@]1(C)O)[C@H]23
(24) COc1cc2c(cc1OC)CNCC2

assay / entry,17,18,19,20,21,22,23,24
LANA-nucl inh,0.502,0.0255,.,0.13,-0.304,-1.16,-0.459,.
Ab BasE inh,3.2,1.0,-1.9,-2.5,-1.1,-2.3,-0.7,0.0

Another view of 4 compounds above:
22) C=CCc1ccc2c(c1)OCO2
  LANA-nucl inh = -1.16
  Ab BasE inh = -2.3

18) CCc1ccc(C=C2C(=O)N(C)C(=S)N(C)C2=O)cc1
  LANA-nucl inh = 0.0255
  Ab BasE inh = 1.0

20) COc1ccc(Br)cc1CN1CCN(C(=O)Cc2ccccc2)CC1
  LANA-nucl inh = 0.13
  Ab BasE inh = -2.5

17) COc1ccccc1CNc1cnn(C23CC4CC(CC(C4)C2C(=O)O)C3)c(=O)c1Cl (stereo not drawn)
  LANA-nucl inh = 0.502
  Ab BasE inh = 3.2

Next section
(25) NC(=O)CN1CCCC1=O
(26) C/C=C(/C)C(=O)O[C@H]1C(C)=C2[C@H]([C@@H]1OC(=O)CCCCCCC)[C@@](C)(OC(C)=O)C[C@H](OC(=O)CCC)[C@@]1(O)[C@H]2OC(=O)[C@@]1(C)O
(27) Cc1cc(OC(=O)N(C)C)nc(-c2ccc(F)c(Cl)c2)n1
(28) C=C[C@H]1CN2CC[C@H]1C[C@H]2[C@H](O)c1ccnc2ccccc12
(29) Cc1nccc2c1[nH]c1ccccc12
(30) NC(=O)c1cc([N+](=O)[O-])cc([N+](=O)[O-])c1
(31) OC1CCCCC1N1CCC(c2ccccc2)CC1 (stereo not drawn)
(32) CC[C@]1(O)CC[C@H]2[C@@H]3CCC4=CCCC[C@@H]4[C@H]3CC[C@@]21C

assay / entry,25,26,27,28,29,30,31,32
LANA-nucl inh,-1.04&0.262&0.354,0.416,-0.387,0.542&-0.179,0.302,-0.364&0.925,0.0825&-0.843&-0.472,-0.055
Ab BasE inh,-0.8&-1.6,0.1,.,-4.4,-1.2,1.6,-1.6&-0.6,.

(33) Cn1cnc(-n2oo2)c1C#N
(34) COc1cc(C=C(C#N)C#N)ccc1O
(35) OCCCCNC1CCCCC1
(36) CCOc1ccc(-n2c(CN(CC)CC)nc3ccccc3c2=O)cc1
(37) Nc1nnc(CCN2CCCC2)s1
(38) C/C=C(\C)CN(C)CCc1ccccn1
(39) O=C(O)C(Cl)Cl
(40) NP(N)(=O)C12CC3CC(CC(C3)C1)C2

assay / entry,33,34,35,36,37,38,39,40
LANA-nucl inh,.,0.427,0.89,-0.649,-0.115,-0.915,-0.0675,.
Ab BasE inh,-0.8,-1.9,0.1,-0.5,1.4,0.6,.,2.7

Whole records as entered above. Values in the order: LANA-nucl inh, Ab BasE inh
NP(N)(=O)C12CC3CC(CC(C3)C1)C2 across the screens: ., 2.7
OCCCCNC1CCCCC1 across the screens: 0.89, 0.1

Going on with the list.
(41) COC(=O)C(O)(c1c[nH]c2ccccc12)C(F)(F)F (stereo not drawn)
(42) N#CC(C#N)=Cc1ccc(O)c(Cl)c1
(43) CC(=O)N(C1=NCCCS1)c1ccccc1F
(44) N#CC(C#N)=Cc1ccc(Cl)s1
(45) COc1cc(CN2CC3CC(C2)c2cccc(=O)n2C3)cc(Br)c1O (stereo not drawn)
(46) COc1ccccc1Cn1c(N)c(C(N)=O)c2nc3ccccc3nc21
(47) N#CCSc1ccccc1NC(=O)CN1CC=C(c2ccccc2)CC1
(48) CCSc1nc2ccccc2c(=O)n1-c1cccc(OC)c1
(49) CN1CCC(NCCO)CC1
(50) C#CCN=Cc1c(O)[nH]c(=O)[nH]c1=O

assay / entry,41,42,43,44,45,46,47,48,49,50
LANA-nucl inh,0.501,-0.855,0.184,-1.29,0.207,-0.951,.,.,-0.843,.
Ab BasE inh,-1.4,4.5,0.1,1.8,11.8,-0.8,-6.8,0.1,-1.4,-0.4
